D2 agonist: human D2 receptor agonism in beta-arrestin assay | P14416 | DiscoveRx PathHunter D2 beta-arrestin, luminescence, 90 min; 100% = 57 uM dopamine signal | activation, % (no concentration beside the values) | hit rate 0.084% among 360,000 | AID 624465; in the data active = activation above about 40%; inconclusive = about 15% to 40%; inactive = below about 15%; note: compound concentration not given in the record; the text of the record calls up to 30% inactive
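Agonist mode: compounds alone added to overnight-plated D2 PathHunter cells for 90 min at 37 C, with 57 uM final dopamine (EC100) defining full response. Beta-arrestin recruitment detected by chemiluminescent reagent, read after 1 h at ambient temperature.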
D2 PAM: human D2 receptor positive allosteric modulation. AID 624464. P14416. hit rate 0.23% among 360,000. DiscoveRx D2 beta-arrestin cells, luminescence, 90 min; 100% = 57 uM dopamine signal. potentiation, % (concentration not given with the values); active = potentiation of 50% or more; inconclusive = 30% to 50%; inactive = 30% or less;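 note: compound concentration not given in the record; tested on top of an EC20 dose of dopamine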
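PathHunter beta-arrestin assay in DiscoveRx D2 cells. Compounds were added with an EC20 of dopamine (50 nM final) for 90 min at 37 deg C. Luminescence was read 1 h after detection reagent, with 57 uM dopamine as the EC100 control.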
CtBP-E1A blk: inhibitors of CtBP/E1A interaction. AlphaScreen GST-E1A/His-CtBP binding, 1536-well; hits give low values; control for the full effect not named in the record. activity change, % (concentration not given with the values). hit rate 0.49% among 340,000; in the data active means activity change below about -65%; inconclusive means about -30% to -65%; inactive means above about -30%; note: % is set by controls: 0 for no effect and ±100 for the full control effect
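In 5 uL wells, 23 nL compound meets equimolar GST-E1A and His-CtBP (5X stock 125 nM each) for 2 h, 37 °C. Beads (5X, 50 ug/mL) then 1 h, 37 °C, dark.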
Six1-Eya2 blk: blocks human Six1 binding to Eya2. Q15475+O00167. AlphaScreen GST-Six1/His-Eya2 binding, biochemical; hits give low values; control for the full effect not named in the record. activity change, % (test concentration not listed). hit rate 0.56% among 360,000. AID 651725; in the data active = activity change below about -65%; inconclusive = about -30% to -65%; inactive = above about -30%; note: % is set by controls: 0 for no effect and ±100 for the full control effect; compound concentration not given in the record
Target sequence (O00167 whole entry, looked up): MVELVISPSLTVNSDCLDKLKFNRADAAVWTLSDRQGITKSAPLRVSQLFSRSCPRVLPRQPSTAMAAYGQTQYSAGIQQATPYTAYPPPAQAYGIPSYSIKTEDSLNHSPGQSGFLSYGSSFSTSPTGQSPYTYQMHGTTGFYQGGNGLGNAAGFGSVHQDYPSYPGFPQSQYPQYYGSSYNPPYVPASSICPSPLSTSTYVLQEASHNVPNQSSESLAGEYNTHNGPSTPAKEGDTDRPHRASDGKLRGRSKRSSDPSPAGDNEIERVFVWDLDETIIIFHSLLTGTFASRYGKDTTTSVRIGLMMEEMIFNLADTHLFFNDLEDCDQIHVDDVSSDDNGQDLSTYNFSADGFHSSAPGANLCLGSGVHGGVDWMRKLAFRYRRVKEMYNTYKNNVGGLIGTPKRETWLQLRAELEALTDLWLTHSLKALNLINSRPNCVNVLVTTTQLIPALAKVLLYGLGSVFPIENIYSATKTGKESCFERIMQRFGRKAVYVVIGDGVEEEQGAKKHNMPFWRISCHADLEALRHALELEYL
Target sequence (Q15475 whole entry, looked up): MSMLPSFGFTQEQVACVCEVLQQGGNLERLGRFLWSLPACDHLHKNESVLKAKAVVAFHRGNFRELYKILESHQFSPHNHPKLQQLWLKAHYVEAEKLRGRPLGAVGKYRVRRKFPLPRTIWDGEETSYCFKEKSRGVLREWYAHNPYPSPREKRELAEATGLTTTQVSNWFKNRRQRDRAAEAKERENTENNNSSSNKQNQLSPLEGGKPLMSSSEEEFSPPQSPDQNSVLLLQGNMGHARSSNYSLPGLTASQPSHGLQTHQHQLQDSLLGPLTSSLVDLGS
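AlphaScreen luminescence read after one hour at 37 °C in darkness. Pin-transferred compounds met GST-Six1 and His-Eya2 protein (5X stock 250 nM/500 nM) plus glutathione donor and Ni-chelate acceptor beads (5X, 50 ug/mL).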
gsp antagonist: gsp mutant antagonism | gsp-mutant cells, cAMP HTRF, 30 min; control for the full effect not named in the record | Potency, µM (top dose mostly 76.9 µM), for inactives: at the top dose activity change, negative = inhibition, most hits filed as inhibitors | hit rate 0.4% among 340,000 | AID 624288; active = falling curve of any shape with a large fitted effect; inconclusive = falling curve, mostly with a smaller effect; inactive = flat or rising curve; cell line not stated here;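 note: intracellular cAMP measured with PDE inhibitor Ro 20-1724 present during compound exposure; potency is the fitted concentration of half-maximal effect; % is set by controls: 0 for no effect and ±100 for the full control effect; nearly all actives have a fitted effect of over 65% in size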
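Measurement of cellular cAMP by homogeneous time-resolved fluorescence following a 30 min compound exposure at 37C. The PDE inhibitor […] was present throughout; the assay buffer was DPBS with 0.05% BSA and 0.005% Tween 20.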
gsp agonist: gsp mutant agonism; gsp mutant cells, cAMP HTRF, 30 min; control for the full effect not named in the record; Potency, µM (titrated, usually from 76.9 µM), inactives show at the highest dose activation (cAMP increase), hits mostly activators; hit rate 0.13% among 340,000; AID 624287; active = well fitted activation curve with a large enough effect; inconclusive = small, poorly fitted or top-dose-only effect, or another doubt; inactive = no such curve, though single readings can be large or run the other way; cell line not stated here;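 note: phosphodiesterase inhibitor Ro 20-1724 added with compounds to block cAMP breakdown; potency is the fitted concentration of half-maximal effect; nearly all actives have a fitted effect of over 60% in size; about a fifth of the inactives were tested at one dose only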
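Cells stably selected in G418 were plated at 2000/well, grown 16-24 hr, then given compounds in DMSO with the PDE inhibitor […] (300 uM solution added) for 30 min at 37C; cAMP was read by HTRF.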
* hit, by the source's call; u = inconclusive; x = no result given; [ ] = remark or other dose.

D2 agonist	SMILES	D2 PAM	CtBP-E1A blk	Six1-Eya2 blk	gsp antagonist	gsp agonist
1.2	O=C(COC(=O)c1ccc(F)cc1)Nc1ccc(Cl)cn1	-3	4	1	9%	17%[15.4 µM]
1.2	Cc1cc(-c2nnc(CCC(=O)NCCc3ccccc3F)o2)no1	-8	-4	11	10%	-56%[inhibitor]
4.6	Cc1cccc(-c2nnc(SC(C)C(=O)N3CCOCC3)o2)c1 (centres undefined)	3	10	5	2%	26%
-3.3	CCOC(=O)C1=NN(C(=O)COc2ccccc2)C(O)(c2ccc(Cl)cc2)C1 (centres undefined)	-6	-15	20	7%	-9%[15.4 µM]
-1.3	O=C1CN(C(=O)/C=C/c2ccc(Cl)cc2)c2ccccc2N1	-6	-4	-10	-2%	-2%
3.6	CCOC(=O)CC(=O)CSc1ccc2nnc(-c3cccc(F)c3)n2n1	-4	u	-27	1%	u
-0.9	Cc1ccc(CN2CCN(Cc3nc4c(s3)CCCC4)CC2CCO)cc1 (centres undefined)	-15	1	0	4%	-17%
-1.2	Cc1onc(-c2ccccc2)c1C(=O)N(C)CCc1ccccn1	-4	-3	1	-6%	-3%
0.4	O=C1/C(=C/c2cccnc2)Oc2cc(OS(=O)(=O)c3ccc(F)cc3)ccc21	2	3	1	u	-21%
-3.5	CCOC(=O)/C(C#N)=N\Nc1cc(Cl)ccc1OC	-17	x	-1	4%	-8%
-9.7	O=C(CN1C(=O)C2CC=CCC2C1=O)OCc1cc(=O)n2cc(Br)ccc2n1 (centres undefined)	-8	3	-1	10%	u
-1.4	O=C(Nc1ccc2c(c1)OCCO2)C(=O)c1c[nH]c2ccccc12	6	-8	-9	17%	1%
6.3	COC(=O)c1ccc(CSc2nnc3n(Cc4ccccc4OC)c(=O)c4ccccc4n23)o1	-6	0	-1	-15%	-27%
-2.0	COC(=O)c1ccccc1S(=O)(=O)Nc1ccc(OC)nc1	-15	5	0	3%	-3%
0.1	CC(C)C(=O)Nc1ccc(NC(=O)c2cccs2)cn1	2	-1	-4	4%	-7%
-2.9	CCNC(=O)C1(C)CCCN(C(=O)Cc2ccc(OC)c(OC)c2)C1 (centres undefined)	-4	8	3	x	x
0.0	COc1cc(NC(=O)Cn2c(C)cc3ccccc3c2=O)cc(OC)c1OC	-19	0	0	24%	u
-0.9	c1ccc(COc2ncnc3c2ncn3CCCNCCN2CCOCC2)cc1	x	1	3	4%	x
2.2	CC1NC(=O)NC1CCCCCC(=O)NCCc1ccccc1 (centres undefined)	-3	10	4	-2%	28%
11	COc1ccc(/C=C/C(=O)NC(=S)NN2CCCCC2c2cccnc2)cc1 (centres undefined)	-5	x	-15	10%	-49%
3.9	O=C(Nc1cccc([N+](=O)[O-])c1)c1ccn[nH]1	1	-3	10	x	20%[15.4 µM]
1.6	O=S(=O)(NCC1CCCO1)c1ccc(NS(=O)(=O)c2ccc(F)cc2)cc1 (centres undefined)	0	5	5	4%	-27%
-1.6	COc1cc(CNCCc2ccccc2)ccc1OCc1ccc(Cl)nc1	-20	-4	-1	15%	1%
-2.2	O=C1C2C3CC4C5C3C1C5C1(SCCS1)C42 (centres undefined)	2	1	1	x	x
8.3	O=C1c2ccccc2C(=O)N1CCCCN(C(=O)c1cc2ccccc2oc1=O)c1ccc(F)cc1F	7	0	-17	u	-14%[15.4 µM]
-0.3	COc1ccc2[nH]cc(/C=C(/C#N)S(=O)(=O)c3ccccc3)c2c1	-3	-13	-15	-23%	5%
-1.7	COC(=O)C1CSc2[nH]c(=O)sc2C1c1ccc(O)c(OC)c1 (centres undefined)	-5	0	-4	12%	-12%
1.4	Clc1cccc(Nc2ncnc3ccc(Br)cc23)c1	-14	10	5	-11%	u
8.0	CC(CC(=O)Nc1ccc(F)cc1)S(=O)(=O)c1ccc2c(c1)NC(=O)CO2 (centres undefined)	-2	1	0	20%	13%
-1.4	COCCCn1cnnc1SCc1nc2sc(C(C)=O)c(C)c2c(=O)[nH]1	-9	-2	19	-3%	8%
1.3	CCOCCCNS(=O)(=O)c1ccc(Br)cc1	22	0	6	-19%	10%
14	Cc1cc(C(=O)Nc2ccc(S(=O)(=O)N3CCOCC3)cc2)ccc1[N+](=O)[O-]	-2	x	-18	-5%	-25%
-4.9	CC1(C)SC(=S)N(/N=C/c2ccccc2)C1N(O)C(=O)Nc1ccc([N+](=O)[O-])cc1 (centres undefined)	-11	-15	-16	-8%	1%
-2.9	Cc1ccc(-n2cc(CNCCN3CCOC3=O)c(-c3ccc(F)cc3)n2)cc1	-12	2	2	-14%	4%[15.4 µM]
-3.0	O=c1c2ccccc2nc(-c2ccoc2)n1CCc1ccccc1	0	4	-12	-10%	3%
3.3	COCCn1c(SCC(=O)NC2(C#N)CCCCC2)nc2ccccc2c1=O	-1	0	22	-16%	3%

Reformatted with tabs: part of the list above.
SMILES	D2 agonist	D2 PAM	CtBP-E1A blk	Six1-Eya2 blk	gsp antagonist	gsp agonist
Cc1cc(C(=O)Nc2ccc(S(=O)(=O)N3CCOCC3)cc2)ccc1[N+](=O)[O-]	14	-2	x	-18	-5%	-25%
O=c1c2ccccc2nc(-c2ccoc2)n1CCc1ccccc1	-3.0	0	4	-12	-10%	3%

Additional compounds follow.
D2 agonist	SMILES	D2 PAM	CtBP-E1A blk	Six1-Eya2 blk	gsp antagonist	gsp agonist
-2.3	O=C(Nc1cccc(F)c1)N1CC=C(c2ccc(Cl)cc2)CC1	-22	-4	0	-10%	19%
-2.7	CCOC(=O)C(C#N)C(Cc1ccccc1)c1ccco1 (centres undefined)	-4	6	-3	-14%	-10%
3.3	Cc1ccc(Sc2ccc(NC(=O)CCl)cc2)cc1C	6	3	9	-4%	-59%[inhibitor]
2.3	N=c1sccn1CC(=O)N1N=C(c2ccc(Cl)cc2)CC1c1ccco1 (centres undefined)	3	0	-17	x	-4%[15.4 µM]
3.3	Cc1nc(C2CCCCC2)c(-c2ccccc2)c(N2CCOC2=O)c1C	-53	0	-1	-3%	x
1.2	CCCC(=O)Nc1ccc2c(c1)nc(CCNC(=O)c1ccco1)n2C	-6	3	2	9%	-2%[15.4 µM]
-1.0	C1CC(CN2CCOCC2)CN(Cc2nc(CC3CC3)no2)C1 (centres undefined)	-1	1	5	-2%	20%
-2.8	C=C(C)CSc1nc2sc3c(c2c(=O)n1-c1ccccc1)CCN(C)C3	-31	x	-11	-3%	41%
3.7	COc1ccc(CCC(=O)N2CCN(c3ccc([N+](=O)[O-])cc3)CC2)cc1OC	-1	-1	4	-24%	-3%
-2.5	O=C(NCCNC(=O)c1cc(OCC(F)(F)F)ccc1OCC(F)(F)F)Nc1ccc(OC(F)(F)F)cc1	-8	9	0	-17%	u
-1.9	CCOc1cc(CN2CCc3c([nH]c4ccccc34)C2)ccc1OC	-17	4	-26	11%	-4%[15.4 µM]
-3.0	COc1nc2ccccc2nc1N1CCN(Cc2ccc3c(c2)OCO3)CC1	-34	-11	-1	-1%	26%
4.7	CCOC(=O)Cn1c(=O)oc2cc(S(=O)(=O)N3CCN(c4ccccn4)CC3)ccc21	-7	0	14	-7%	1%
-3.6	Cc1ccc(S(=O)(=O)N(CC(=O)Nc2cccnc2)c2ccc(Br)cc2)cc1	-43	2	-6	-28%	1%
-3.6	CC1(C)N=C(N)N=C(N)N1c1ccc(OCC(=O)Nc2ccccc2)c(Cl)c1	-28	0	0	x	-2%
-5.3	CC(=O)N1CCc2cc(NC(=O)C3(C)CCN3Cc3ccccc3OC(F)F)ccc21 (centres undefined)	-14	3	-9	x	x
-4.3	CCOC(=O)Cn1cc(Cl)c(=O)c(Cl)c1	-9	3	8	-7%	12%[15.4 µM]
-1.2	O=C(CC1CC2CCC1C2)NCc1cccs1 (centres undefined)	-21	-2	3	11%	-1%
3.3	CCNC(=O)c1ccccc1SCc1ccccc1	0	7	3	14%	7%
-3.0	COc1ccc(CNC(=O)c2ccc(Br)o2)cc1	-29	x	-4	6%	4%
-2.6	COc1ccccc1N(CC(=O)NCC1CCCO1)C(=O)CCC(=O)Nc1nccs1 (centres undefined)	-4	-1	0	4%	2%
0.2	COC(=O)c1[nH]c2ccccc2c1NC(=O)CN1CCN(c2cccc(Cl)c2)CC1	-47	-16	-25	-25%	-31%[inhibitor]
-10	O=C(NNC(=S)Nc1cccc(C(F)(F)F)c1)c1ccc(Cl)cc1Cl	-22	-15	2	-14%	-4%[15.4 µM]
-3.5	O=C(NC1CCCC1)C(c1ccncc1)N(Cc1ccco1)C(=O)c1ccc(-c2ccccc2)[nH]1 (centres undefined)	-14	-3	-19	-7%	-2%[15.4 µM]

Compound profiles, as listed above. Values in the order: D2 agonist | D2 PAM | CtBP-E1A blk | Six1-Eya2 blk | gsp antagonist | gsp agonist
Listed for CCNC(=O)c1ccccc1SCc1ccccc1 = 3.3 | 0 | 7 | 3 | 14% | 7%
Listed for O=C(CC1CC2CCC1C2)NCc1cccs1 (centres undefined) = -1.2 | -21 | -2 | 3 | 11% | -1%
Listed for O=C(NC1CCCC1)C(c1ccncc1)N(Cc1ccco1)C(=O)c1ccc(-c2ccccc2)[nH]1 (centres undefined) = -3.5 | -14 | -3 | -19 | -7% | -2%[15.4 µM]
Listed for COc1ccc(CNC(=O)c2ccc(Br)o2)cc1 = -3.0 | -29 | x | -4 | 6% | 4%
Listed for CC1(C)N=C(N)N=C(N)N1c1ccc(OCC(=O)Nc2ccccc2)c(Cl)c1 = -3.6 | -28 | 0 | 0 | x | -2%

The list goes on.
D2 agonist	SMILES	D2 PAM	CtBP-E1A blk	Six1-Eya2 blk	gsp antagonist	gsp agonist
1.3	Cc1nc(-n2nnc(CO)c2CO)nc2c1CCC2	0	2	3	13%	-18%[15.4 µM]
-3.3	CN1CCN(C(=O)C2(NC(=O)Nc3ccccc3Cl)CCCCC2)CC1	1	6	1	-6%	-25%
0.5	Cc1ccc(S(=O)(=O)/N=C(\N)Nc2nc(C)c3ccc(C)cc3n2)cc1	-4	-13	-15	-4%	10%
3.5	CC(C)(C)OC(=O)[C@H](Cc1ccccc1)NC(=O)c1[nH]cnc1C(=O)N[C@@H](Cc1ccccc1)C(=O)OCc1ccccc1	-4	-6	-8	12%	x
-2.3	CCNC(=O)c1ccccc1-c1nc(-c2ccccc2OC)no1	-15	x	6	-2%	-1%
-5.8	NC(=S)Nc1ccc2c(c1)OCO2	-8	-1	4	-1%	u
-3.6	COc1cc2c(cc1OC)C(c1ccccc1Br)NC(=O)C2 (centres undefined)	-2	-3	0	-18%	u
1.1	CC1CCCCC1NC(=O)COC(=O)c1c2c(nc3ccccc13)/C(=C\c1ccco1)CC2 (centres undefined)	-7	-12	u	-13%	u
1.2	COCCNC(=O)C(=O)Nc1ccc2c(c1)N(S(=O)(=O)c1cccs1)CCC2	-10	4	3	22%	u
-9.3	CC1(C)CC(=O)C(N=Nc2ccc(-c3ccccc3)cc2)=C(O)C1	-5	-2	-2	11%	-57%[inhibitor]
0.9	COc1cccc(-c2cn3nc(C)c(C)nc3n2)c1	11	5	6	7%	u
0.8	Cc1ccc2cc(CN(CCCN(C)C)C(=S)NCc3ccccc3)c(=O)[nH]c2c1C	-4	-7	2	11%	-14%[15.4 µM]
